NPYLR7 ag: agonists of mosquito NPYLR7 receptor, primary screen, cell-based, Aedes aegypti, calcium fluorescence, mosquito biting behavior; HEK293T NPYLR7/Galpha15, GCaMP6s calcium fluorescence; activation, % at 10 µM; hit rate 0.15% among 270,000; AID 1259423, 2018; in the data active = activation above about 40%;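 also: 0% = vehicle and 100% = reference agonist at the receptor; some compounds past the cut are filed as inactive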
NPYLR7 ag max-min: further read-out of NPYLR7 ag, marked with its call; activation, %; measured here: Max-Min RFU normalised activation; some inactives read as strong as hits;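 span of the calcium signal over five minutes; 0% = vehicle and 100% = native peptide agonist; compound fluorescence can raise it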
Active calls of the source: *; & = joins results of further samples. An excerpt; the hit share may differ from the screen's.

Molecule	NPYLR7 ag	NPYLR7 ag max-min
CCCc1cc(=O)[nH]c(SC(C)C(=O)NCc2ccc3c(c2)OCO3)n1 (stereo not drawn)	0	-1
O=C(N=Nc1c(O)[nH]c2ccccc12)c1nc[nH]c1C(=O)N=Nc1c(O)[nH]c2ccccc12	-2	0
O=C(c1ccco1)N(Cc1nc2cc(Cl)ccc2o1)C1CCCC1	-2	-13
Cc1ccc(C(C)CCN2CCOc3ccc(CN4CCC(O)(c5cccnc5)CC4)cc3C2)o1 (stereo not drawn)	21	9
O=c1c2c3nc4ccccc4nc3n(CCc3ccccc3)c2ncn1CC1CCCO1 (stereo not drawn)	1	-2
CCS(=O)(=O)N(CCOC)CC(=O)N(CCc1c[nH]c2ccccc12)Cc1ccccc1	-9	-2
CCCCCCCCNC(C)C(O)c1ccc(SC(C)C)cc1 (stereo not drawn)	-7&-13	-11&-15
COc1ccc(CN2C(=O)N(C)C3(CCN(Cc4ccc(C#CC(C)(C)O)cc4)CC3)C2=O)cc1	23	9

The list goes on; the last 5 above are carried over.
Molecule	NPYLR7 ag	NPYLR7 ag max-min
Cc1ccc(C(C)CCN2CCOc3ccc(CN4CCC(O)(c5cccnc5)CC4)cc3C2)o1 (stereo not drawn)	21	9
O=c1c2c3nc4ccccc4nc3n(CCc3ccccc3)c2ncn1CC1CCCO1 (stereo not drawn)	1	-2
CCS(=O)(=O)N(CCOC)CC(=O)N(CCc1c[nH]c2ccccc12)Cc1ccccc1	-9	-2
CCCCCCCCNC(C)C(O)c1ccc(SC(C)C)cc1 (stereo not drawn)	-7&-13	-11&-15
COc1ccc(CN2C(=O)N(C)C3(CCN(Cc4ccc(C#CC(C)(C)O)cc4)CC3)C2=O)cc1	23	9
COc1ccccc1/C=C/CN1CCC(n2nccc2NC(=O)CCc2ccccc2)CC1	-2	-2
Cc1c(C(=O)NC2CCN(Cc3ccccc3)CC2)cc(-c2ccc(Cl)cc2)n1-c1ccc(F)cc1F	1	11
Cc1ccc(-n2c(C(C)N(CCc3ccccc3)C(=O)/C=C/c3ccccc3)nc3ccccc3c2=O)cc1C (stereo not drawn)	-1	-9
CC(NC(=O)N1CCN(S(=O)(=O)c2cccnc2)CC1)c1ccccc1F (stereo not drawn)	7	4
CCN(CC)C(=O)C1CCCN(Cc2nc(-c3ccc4c(c3)OCO4)no2)C1 (stereo not drawn)	4	-1
c1ccc2c(c1)nc(C1CCCO1)n2CCC1CCCCC1 (stereo not drawn)	14	12
Cc1ccc(OCc2nccn2C(F)F)c(C(=O)NCC(C)C)c1	11	8
Cn1cc(C(=O)N2CCOCC2)cc(NC(=O)c2ccccc2C(F)(F)F)c1=O	-15	-23

Additional records follow.
Molecule	NPYLR7 ag	NPYLR7 ag max-min
CCOC(=O)c1ccc2c(c1)nc(SCc1ccccc1C)n2Cc1cccc(F)c1	4	1
O=C1/C(=C/c2cc3ccccc3o2)Oc2cc(O)ccc21	49*	43*
CCc1[nH]c2c(CNC(=O)Cn3ccc(=O)[nH]c3=O)cc(F)cc2c1C	5	2
COc1ccc(F)c(F)c1CN1CCCC(OCc2ccccn2)C1 (stereo not drawn)	-5	-4
COc1cccc(C(=O)Nc2c3c(nn2-c2cccc(C)c2C)CSC3)c1OC	-5	-6
CCCCC(C)=NNC(=O)Cn1ccc(C(F)(F)F)n1	-3	-4
N#Cc1cnn(-c2ccccc2)c1N	-2	-5
COc1cc(C)c(C(C)NC(=O)c2c(C)oc(C)c2C)cc1OC (stereo not drawn)	1	-2

Next section:
Molecule	NPYLR7 ag	NPYLR7 ag max-min
COCc1cc(N2CCN(c3ccccc3Cl)CC2)nc(SCc2ccc(C(=O)NCc3ccccn3)cc2)n1	5	16
Nc1nc(NS(=O)(=O)c2ccccc2)ns1	0	0
O=C(NC1CCCCC1)C1CCCN(S(=O)(=O)N2CCOCC2)C1 (stereo not drawn)	1	-2
CSc1ccccc1NC(=O)CC(C)(C(=O)O)c1ccccc1 (stereo not drawn)	9	9
O=C(/C=C/c1ccc(OC(F)(F)F)cc1)N1CC(=O)N2CCc3ccc(Cl)cc3C2C1 (stereo not drawn)	-3	-7
Cc1ccc2c(c1)N(C(=O)Nc1ccc(S(C)(=O)=O)cc1)CC2	-17	-23
COc1ccc(/C=C2\N=C(c3ccc(F)cc3)OC2=O)cc1OC(C)=O	-21	-20
CCOC(=O)C1(C)CCN1C(=O)c1cccc(C(F)(F)F)c1 (stereo not drawn)	2	1

The list goes on:
Molecule	NPYLR7 ag	NPYLR7 ag max-min
CCOC(=O)CNC(=O)CSc1nnc(C(C)C)c2cnn(-c3ccc(F)cc3)c12	-10	-16
COc1ccccc1NC(=O)Cn1nc(C2CC2)c2cnn(-c3ccccc3C)c2c1=O	-2	-4
O=S(=O)(NC1=NCCCCCC1)c1cc(Br)ccc1Br	7	5
O=C(CCC1CCCCC1)Nc1c2c(nn1-c1ccc([N+](=O)[O-])cc1)CSC2	-2	-5
Cc1cc(-n2c(C)cc(CNC3CC(C)(C)NC(C)(C)C3)c2C)no1	-1	-2
O=C(NCCc1nc2ccccc2[nH]1)c1cc(COc2ccccc2)[nH]n1	3	11
Cc1cc(=O)[nH]c(SCC(=O)O)c1C#N	-3	-6
CCOc1ccccc1NC(=O)N1CCN(C(c2ccccc2)c2ccc(Cl)cc2)CC1 (stereo not drawn)	15	15

Further records follow:
Molecule	NPYLR7 ag	NPYLR7 ag max-min
COCCO[C@H]1[C@H](NC(=O)C(C)C)c2ccccc2C12CCN(C(=O)c1cc(C(C)C)on1)CC2	13	1
Cc1cccc(C)c1NC(=O)CN(Cc1ccc2c(c1)OCO2)C1CCCC1	-4	-7
CC(=O)C1=C(C)NC2(O)c3ccccc3C(=O)C12O (stereo not drawn)	18	16
COc1cccc(-c2nnc(SCc3nc(C(=O)O)cs3)n2-c2ccc(C)cc2)c1	-1	6
CCc1nc([C@H]2CN(C)C[C@@H]2C(=O)NCCn2cccn2)c(C)[nH]1	4	1
CN(C)C(=O)CN(C)C(=O)C(C)(C)c1cccc(C(F)(F)F)c1	1	1
CCOP(=O)(Cc1ccc(NC(=O)C(C)(C)CCCOc2cc(C)ccc2C)cc1)OCC	-9	-15
O=C(NCCc1ccccn1)C1CC12CCN(C(=O)/C=C/c1ccc(Cl)cc1)CC2 (stereo not drawn)	16	9

The results go on:
Molecule	NPYLR7 ag	NPYLR7 ag max-min
COc1cncc(-c2cccnc2OC)c1	-6	-12
Cc1ccc(NC(=O)C2C(C)Nc3ncnn3C2c2ccccc2)c(C)c1 (stereo not drawn)	2	1
Cc1[nH]c2ccc(CNC(=O)CCc3cc(Cl)no3)cc2c1C	-7	-9
CCOC(=O)CCC(=O)N1CCN(c2cc(Oc3ccc(F)cc3Cl)ncn2)CC1C (stereo not drawn)	8	8
COc1cccc(Cn2nc(C)c(CNCc3ccco3)c2Cl)c1	-3	-4
CCn1c(-c2ccccc2)cnc1SCC(=O)NC1CCS(=O)(=O)C1 (stereo not drawn)	-3	-2
CCCOCCNC(=O)c1cc(N(C)C2CCCCC2)nc2ccccc12	3	-3
O=C1NCC2(CCCN(C(=O)c3cnn4c3CCCC4)CC2)O1 (stereo not drawn)	1	1

A stretch from further up:
Molecule	NPYLR7 ag	NPYLR7 ag max-min
CCOC(=O)CCC(=O)N1CCN(c2cc(Oc3ccc(F)cc3Cl)ncn2)CC1C (stereo not drawn)	8	8
COc1cccc(Cn2nc(C)c(CNCc3ccco3)c2Cl)c1	-3	-4
CCn1c(-c2ccccc2)cnc1SCC(=O)NC1CCS(=O)(=O)C1 (stereo not drawn)	-3	-2
CCCOCCNC(=O)c1cc(N(C)C2CCCCC2)nc2ccccc12	3	-3
O=C1NCC2(CCCN(C(=O)c3cnn4c3CCCC4)CC2)O1 (stereo not drawn)	1	1

(cont.)
Molecule	NPYLR7 ag	NPYLR7 ag max-min
CNc1nc2cnc(-c3ccc4c(c3)OCO4)cc2n1-c1ccccc1	15	3
COc1cccc(C(C)NC(=O)c2sc3ccc(OC)cc3c2Cl)c1 (stereo not drawn)	25	29
CC1=C(C(=O)OCC2CCCO2)C(c2ccccc2OCc2ccccc2)NC(=O)N1 (stereo not drawn)	-2	-6
c1csc(-c2nc(CSC3=NCCS3)co2)c1	5	3
Cc1nccn1CCC1CCCCN1C(=O)c1cc(C(C)C)no1 (stereo not drawn)	4	3
O=C(c1ccc(-c2cncnc2)nc1)N1CCC(CCc2ccccc2)CC1	17	4
COCCN(CC(=O)N(CCc1c[nH]c2ccccc12)Cc1ccc(C(F)(F)F)cc1)C(=O)c1ccc([N+](=O)[O-])cc1	-6	2
CCN(CC)c1ccc2cc(C(=O)Nc3cccc4ccccc34)c(=N)oc2c1	-6	-10

Going on with the list:
Molecule	NPYLR7 ag	NPYLR7 ag max-min
CCc1nc2c(OCc3ccc(C(=O)N(C)C)cc3)cccn2c1N(C)C(=O)c1cccs1	24	7
COCCN(CC(=O)N(CCc1c[nH]c2ccccc12)Cc1ccc(F)cc1)C(=O)Nc1ccc(OC)cc1	15	17
CO[C@H]1[C@@H](CN(C)C(=O)c2cccs2)[C@H]2O[C@@H]1c1ccccc12	9	18
CN(CCCNC(=O)Cn1cc2c(n1)CCCC2)C1CCCCC1	2	-3
Oc1ccc2c(O)coc2c1	3	2
CC(=O)Nc1cccc(C(=O)N2CCC(n3nc(C)cc3C)CC2)c1	2	3
Cc1cccc(C)c1Oc1ncccc1CNC(=O)C1(C)CCCCO1 (stereo not drawn)	-4	-4
CC(=O)N(c1nc(CSc2ccc(C)cn2)cs1)C1CC1	10	8

(more compounds)
Molecule	NPYLR7 ag	NPYLR7 ag max-min
Cc1ccc(C(=O)C=Cc2ccc(OCC(=O)O)cc2)cc1C	1	-1
COCCCN(CC(=O)N(CCc1ccc(OC)c(OC)c1)Cc1sccc1C)C(=O)c1cc(Cl)cc(Cl)c1	7	7
O=C(CCN1CCCC(O)C1)N1CCc2ccccc21 (stereo not drawn)	0	1
COCCCN(Cc1nc2scc(-c3ccc(OC)cc3)c2c(=O)[nH]1)CC(O)Cc1ccccc1 (stereo not drawn)	14	14
Cc1ccccc1N1CCN(CC(O)Cn2c3ccccc3n3c(=O)cc(C)c(C#N)c23)CC1 (stereo not drawn)	1	7
COc1cccc(-c2cc(C(=O)Nc3ccccc3F)n3nc(C(C)(C)C)cc3n2)c1	5	5
CCNC(=S)N(Cc1c(-c2ccccc2)noc1N1CCCCC1)C1CC1	0	1
Nc1ccnc(N2CCCC(Cc3cccc(Cl)c3)(C(=O)O)C2)n1 (stereo not drawn)	-4	-8

Going on with the list:
Molecule	NPYLR7 ag	NPYLR7 ag max-min
N#CC(=Cc1cccs1)c1nc(C2CC2)cs1	-2	-3
CCN(CC)C(=O)Oc1ccc2c(ccn2Cc2cccc(F)c2)c1NC(=O)C(Cl)Cl	2	3
N#Cc1cccc(C(=O)N2CCN(Cc3ccc(-c4noc(-c5ccccc5)n4)cc3)CC2)c1	7	8
CS(=O)(=O)c1ccc(CCNC(=O)NCC2CC=CCC2)cc1 (stereo not drawn)	11	-1
Cc1ccc(CN(CCc2ccccc2)C(=O)CN(Cc2ccco2)S(=O)(=O)c2ccc(Cl)cc2)o1	-8	5
Cc1cc(Cl)cc2c1N(C(=O)CCc1cnn(C)c1)CCC2	-2	-2
O=C(Nc1ccc(Cl)cc1)N1CCCCC1C1OCCO1 (stereo not drawn)	-5	-4
CN(c1ccccc1)N1CC(C(=O)N[C@H](CO)Cc2ccccc2)CC1=O (stereo partly drawn)	0	-2

Going on with the list.
Molecule	NPYLR7 ag	NPYLR7 ag max-min
Cc1nc(C)c(C(=O)N2CCCC(N(C)C)CC2)s1 (stereo not drawn)	7	6
Cc1c(Cl)ccc2sc(N(CCCn3ccnc3)C(=O)c3cccs3)nc12	-8	-14
O=c1c2cnc3nc(-c4ccccc4)nn3c2ccn1Nc1nc2ccccc2s1	-4	21
CCOc1ccc(CN(CCc2c[nH]c3ccccc23)C(=O)CN(Cc2ccc(F)cc2)C(=O)CC(C)(C)C)cc1	26	23
CCCn1c(CN2CCN(c3ccc(F)cc3)CC2)nc2c1c(=O)n(C)c(=O)n2C	4	0
O=S(=O)(c1cccc2nonc12)N1CCOCC1	0	-2
Cn1cc(S(=O)(=O)Oc2ccc(-c3ccccc3)cc2)c(=O)n(C)c1=O	-1	-2
COc1ccc(Br)c(Cn2c(C)c(C(=O)NCc3ccccc3C(F)(F)F)sc2=O)c1	-2	-3

Continuation:
Molecule	NPYLR7 ag	NPYLR7 ag max-min
CCCCC(=O)N(C)c1c(CC)nc2c(OCc3ccc(C#N)cc3)cccn12	1	3
COc1cccc(Cn2ccnc2CN(CC2CC2)C(=O)c2ccc(C)cc2)c1	8	15
COC(=O)c1cc(C)ccc1Oc1ccc([N+](=O)[O-])cn1	5	13
CCCN(Cc1ccon1)S(=O)(=O)c1ccc(Cl)cc1	-3	-2
O=C(c1cccnc1Cl)N1CCN(Cc2cccc(-c3noc(-c4cccnc4)n3)c2)CC1	6	2
O=S1(=O)CCN2C=C(Cc3ccccc3)SC2=N1	-2	-4
N#CCCN(C(=O)COC(=O)CCC(=O)c1ccc2c(c1)CCC2)c1ccc(F)cc1	1	-2
CO[C@H]1CN(S(C)(=O)=O)[C@H]2Cc3c(n(CC(N)=O)c4ccccc34)[C@@H]1C2	31	29

Continuation:
Molecule	NPYLR7 ag	NPYLR7 ag max-min
O=C(OCc1nc(C(=O)Nc2ccccc2)cs1)c1ccccc1	0	-5
CCCCOC(=O)C1=C(C)NC2=C(C(=O)CCC2)C1c1ccc(CC)cc1 (stereo not drawn)	5	7
Cc1cc(C)nc(N2CCN(CC(=O)NCc3ccccc3)CC2)n1	-2	-2
CCOC(=O)C(=O)Nc1c(-c2ccc(OC)c(OC)c2)cn(Cc2ccccc2)c1C(=O)OCC	5	-1
c1ccc2sc(CSc3nnc(-c4ccc5c(c4)OCO5)o3)nc2c1	-2	-4
O=C(C1CCC1)N(Cc1ccco1)Cc1nccn1Cc1cccc(Cl)c1	37	27
Cn1c2c(c3cc(F)ccc31)CCCC2=O	1	0
COCc1ncc(CN2CCC(Cc3ccc(F)cc3)CC2)cn1	1	-5
OCCN1CCN(CC(O)COCC2COc3ccccc3O2)CC1 (stereo not drawn)	5	1

Source: PubChem
